Compound activity (PubChem)
Ecoli rRNA inh = inhibits bacterial ribosomal RNA function over humanized ribosomes | E. coli WT GFP vs humanized-ribosome RFP mutants, fluorescence, 24 h; active compounds read low; DMSO median 0, no signal -100 | GFP signal change (wild-type ribosome), % (concentration not given with the values) | 1.6% of 350,000 active | AID 720706;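 active means significant combined selectivity score with lowered wild-type GFP, culture density cut under 30%, mutant RFP and density less affected; inactive means any of these conditions unmet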; further: one replicate is shown; some compounds called inactive have numbers as strong as hits
MLL AF4-AF9 inh = MLL-AF4/AF9 protein interaction inhibition | P42568 | AlphaScreen, biotin-AF4 peptide binding to FLAG-AF9 | inhibition, % at 10 µM | 0.47% of 350,000 active | AID 651704;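 active means every replicate reaching a set inhibition limit, whatever the replicate mean, cut at about 25% in these data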;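 further: 0% = plate neutral control median and 100% = total signal loss; the record names both 10 and 1 µM as test concentration; the first replicate is given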
Target sequence (P42568 whole entry, looked up): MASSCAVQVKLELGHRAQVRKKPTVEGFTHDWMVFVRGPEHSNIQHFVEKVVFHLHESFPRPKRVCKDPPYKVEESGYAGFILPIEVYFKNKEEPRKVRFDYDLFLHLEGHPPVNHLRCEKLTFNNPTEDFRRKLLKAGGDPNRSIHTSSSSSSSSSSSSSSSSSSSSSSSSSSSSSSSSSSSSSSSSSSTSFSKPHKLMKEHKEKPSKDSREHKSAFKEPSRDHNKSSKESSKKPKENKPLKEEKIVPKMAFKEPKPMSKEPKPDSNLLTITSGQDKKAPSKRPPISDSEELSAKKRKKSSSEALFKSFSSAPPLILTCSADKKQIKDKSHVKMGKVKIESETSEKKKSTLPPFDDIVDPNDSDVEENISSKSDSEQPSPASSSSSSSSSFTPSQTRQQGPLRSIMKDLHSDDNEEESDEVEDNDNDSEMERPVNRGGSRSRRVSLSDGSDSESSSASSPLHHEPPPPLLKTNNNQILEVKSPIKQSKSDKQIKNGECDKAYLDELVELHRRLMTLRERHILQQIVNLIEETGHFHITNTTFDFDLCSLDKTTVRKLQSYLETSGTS
FGF22 binding = shifts melting point of recombinant human FGF22. Q9HCT0. recombinant FGF22 thermal shift, SYPRO orange fluorescence; percent of sucrose octasulfate shift, DMSO zero. 1.5% of 340,000 active. AID 651658. calls only at 9.99 µM;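 active means melting point raised past a set limit in the mean and every replicate; three in four hits are not shown here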
Target sequence (Q9HCT0 whole entry, looked up): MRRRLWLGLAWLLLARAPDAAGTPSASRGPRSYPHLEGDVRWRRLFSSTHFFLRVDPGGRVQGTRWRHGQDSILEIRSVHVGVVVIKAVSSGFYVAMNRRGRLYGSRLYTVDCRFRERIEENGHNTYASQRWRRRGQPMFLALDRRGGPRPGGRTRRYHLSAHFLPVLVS
Ecoli rRNA inh OD600 = recorded beside Ecoli rRNA inh, whose call it bears; OD600 change, %; measured here: OD600 growth;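 optical density of the mix in the first replicate; 0 = DMSO median and -100 = no signal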
Ecoli rRNA inh RFP = also measured in Ecoli rRNA inh; calls as there; RFP signal change, %; measured here: RFP humanized mutant strains;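 first replicate; 0 = DMSO median and -100 = no signal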
* hit, by the source's call; i = inactive; & = joins results of further samples.

Ecoli rRNA inh	Ecoli rRNA inh OD600	Ecoli rRNA inh RFP	MLL AF4-AF9 inh	FGF22 binding	compound
1.0	-1.1	-0.5	-10.3	i	CO[C@H]1CN(C)C(=O)c2cc(NS(=O)(=O)c3cccc(Cl)c3)ccc2OC[C@@H](C)NC[C@@H]1C
6.9	15.5	2.5	-2.4	i	CCNC(=O)C1CCCN(C(=O)c2ccco2)CC1 (configuration not stated)
-3.8	-4.9	0.6	-7.8	i	C[C@@H]1CN([C@@H](C)CO)S(=O)(=O)c2ccc(C#CC3(O)CCCC3)cc2O[C@H]1CN(C)C(=O)Nc1ccccc1
-3.9	-3.0	-1.4	-2.3	i	COCC(=O)Nc1ccc2c(c1)[C@@H]1C[C@H](CC(=O)NCc3ccccc3OC)O[C@H](CO)[C@@H]1O2
1.8	5.3	1.2	-1.3	i	CN1CCN(C(=O)[C@H]2[C@H](CO)[C@H]3Cn4c(ccc(C5=CCCC5)c4=O)[C@H]3N2Cc2nccs2)CC1
4.9	15.1	-0.2	-0.8	i	Cc1noc(C)c1NC(=O)N(C)C[C@@H]1Oc2ccc(NS(=O)(=O)c3ccc(Cl)cc3)cc2C(=O)N([C@H](C)CO)C[C@H]1C
1.3	4.4	2.5	-3.8	i	C[C@@H]1CN([C@H](C)CO)C(=O)c2cc(NC(=O)c3ccncc3)ccc2O[C@H]1CN(C)C
-4.2	-15.7	0.8	3.3	i	CC(=O)N(C)C[C@H]1Oc2cc(C#CCC(C)C)ccc2S(=O)(=O)N([C@@H](C)CO)C[C@@H]1C
0.9	5.2	0.1	3.0	i	COc1ccc2c3c(n(C)c2c1)[C@@H](CO)N(S(C)(=O)=O)CC31CN(C(=O)C2CCC2)C1
-0.3	-2.4	1.9	1.8	i	C[C@@H]1CN([C@H](C)CO)C(=O)c2cccc(NC(=O)NC3CCCCC3)c2O[C@H]1CN(C)Cc1ccc(Oc2ccccc2)cc1
-0.1	2.5	-1.4	-2.7	i	Cc1noc(C)c1NC(=O)N(C)C[C@@H]1OCc2ccccc2-c2ccccc2C(=O)N([C@@H](C)CO)C[C@@H]1C
-2.9	-4.8	0.7	0.4	i	C[C@@H]1CN([C@@H](C)CO)C(=O)c2cc(NC(=O)C3CCCCC3)ccc2O[C@H]1CN(C)C(=O)Nc1ccc(F)cc1
0.4	-3.9	-2.4	-1.9	i	C/C=C/c1ccc([C@@H]2[C@@H](CO)N(C(=O)CC)[C@@H]2CNC(=O)C2CC2)cc1
2.5	-2.6	-2.7	2.3	i	O=C(c1cccnc1)N1C[C@H]2[C@@H](c3ccccc31)[C@@H](CO)N2C(=O)Nc1cccc(F)c1
-0.2	-4.0	1.0	-0.5	i	COc1cccc(C#Cc2cnc3c(c2)C(=O)N([C@@H](C)CO)C[C@@H](C)[C@H](CN(C)C(C)=O)O3)c1
-1.5	1.2	0.0	-4.7	i	CCN1[C@H](C(=O)OC)[C@@H](CO)[C@@H]2Cn3c(ccc(-c4cncnc4)c3=O)[C@@H]21
-4.3	1.6	-5.7	1.1	i	CCN(CC)C(=O)c1ncn2c1c(=O)[nH]c1ccccc12
0.0	4.5	-4.8	-1.5	i	Cc1nc(Nc2ccccc2C)c2cnn(C)c2n1
7.1	8.1	1.7	-2.4	i	C[C@H](CO)N1C[C@H](C)[C@@H](CN(C)S(C)(=O)=O)Oc2ccc(NS(C)(=O)=O)cc2C1=O
20.5	20.9	13.1	-5.7	i	CC(=O)c1ccc(Nc2ncnc3ccc(Br)cc23)cc1
-6.5	-12.7	0.8	0.1	i	CC(=Nc1ccccc1)C1=C(O)C(Cc2ccc(F)cc2)NC1=O (configuration not stated)
1.5	0.8	-3.1	-2.1	i	COCC(=O)N(C[C@@H]1N[C@@H](CO)[C@H]1c1ccc(-c2cccnc2)cc1)C(C)C
-54.0	-79.2	-18.4	9.7	i	COc1ccc(-c2ncn(CCc3ccccc3OC)c2CC(C)C)cc1
-4.7	-6.1	11.4	2.2	i	Cc1ccc(S(=O)(=O)Nc2ccc3c(c2)C(=O)N([C@@H](C)CO)C[C@H](C)[C@@H](CN(C)C(=O)NC2CCCCC2)OCCCC[C@@H](C)O3)cc1
14.3	5.8	1.6	0.0	i	COc1ccc(CN(CC2CCC(C(=O)O)CC2)C(=S)Nc2cc(C)ccc2C)cc1 (configuration not stated)
-2.1	-0.7	-1.9	-1.2	i	C[C@@H]1CN([C@H](C)CO)C(=O)c2cc(C3=CCCCC3)cnc2O[C@@H]1CN(C)Cc1ccncc1
-14.2	-33.8	37.5	0.0	i	O=C(Nc1ccccc1)C1=C(Nc2ccccc2)CSC1
-3.3	-12.6	0.8	10.3	i	C[C@H]1CN([C@@H](C)CO)C(=O)c2cccc(NS(=O)(=O)c3ccc(F)cc3)c2O[C@H]1CN(C)C(=O)Nc1ccc2c(c1)OCO2
9.3	11.3	-0.5	-2.8	i	CC1(C(=O)NS(=O)(=O)c2ccc(C#N)cc2)CCN1C(=O)Cc1ccc(Cl)cc1Cl (configuration not stated)
1.2	3.9	-2.1	-1.0	i	C[C@@H](NC(=O)C[C@H]1C[C@H]2c3cc(NC(=O)CC4CC4)ccc3O[C@H]2[C@@H](CO)O1)c1ccccc1

Part of the list above, reduced to MLL AF4-AF9 inh and Ecoli rRNA inh:
compound | MLL AF4-AF9 inh | Ecoli rRNA inh
Cc1ccc(S(=O)(=O)Nc2ccc3c(c2)C(=O)N([C@@H](C)CO)C[C@H](C)[C@@H](CN(C)C(=O)NC2CCCCC2)OCCCC[C@@H](C)O3)cc1 | 2.2 | -4.7
CO[C@H]1CN(C)C(=O)c2cc(NS(=O)(=O)c3cccc(Cl)c3)ccc2OC[C@@H](C)NC[C@@H]1C | -10.3 | 1.0
C[C@@H]1CN([C@@H](C)CO)S(=O)(=O)c2ccc(C#CC3(O)CCCC3)cc2O[C@H]1CN(C)C(=O)Nc1ccccc1 | -7.8 | -3.8

Continuation.
Ecoli rRNA inh	Ecoli rRNA inh OD600	Ecoli rRNA inh RFP	MLL AF4-AF9 inh	FGF22 binding	compound
-7.7	-10.0	-0.5	0.5	i	C=CCOc1ccc2c3c(c(=O)oc2c1)CCCC3
3.0	-2.0	-1.7	-1.0	i	CN(C)CC(=O)N1[C@H](CO)[C@@H](c2ccccc2)C12CN(C(=O)c1ccccc1)C2
2.0	-6.7	0.4	1.9	i	COc1ccc(S(=O)(=O)NC(=O)C2(C)CCN2C(=O)Cc2ccc(C(C)(C)C)cc2)cc1 (configuration not stated)
3.1	7.5	-2.6	-1.6	i	Cc1noc(C)c1S(=O)(=O)Nc1ccc2c(c1)CC(=O)N([C@H](C)CO)C[C@H](C)[C@H](CN(C)C)O2
0.8	-0.2	0.8	-0.1	i	COc1ccc2c(=O)c(-c3ccc(C)cc3)c(-c3ccccc3)oc2c1
1.2	2.3	-1.2	7.9	i	C[C@@H]1CCCCO[C@@H](CN(C)C(=O)Nc2ccc3c(c2)OCO3)[C@@H](C)CN([C@@H](C)CO)C(=O)c2cc(NS(=O)(=O)c3ccccc3)ccc2O1
3.6	5.1	-2.5	-18.6	i	CO[C@@H]1CN(C)C(=O)c2ccc(NS(C)(=O)=O)cc2OC[C@H](C)N(S(C)(=O)=O)C[C@H]1C
1.1	-0.6	1.1	1.0	i	CCC(=O)N1CC2(C1)[C@@H](c1ccc(-c3ccc(F)cc3)cc1)[C@@H](CO)N2C(C)=O
4.4	11.7	-0.5	-1.4	i	Cn1cnc(S(=O)(=O)N2C[C@H](O)COC[C@H]3O[C@H](CC(=O)NCc4cccc(F)c4)CC[C@@H]32)c1
-5.5	-4.7	2.4	10.3	i	CO[C@@H]1CN(C)C(=O)c2ccc(NC(=O)Nc3ccc(Cl)cc3)cc2OC[C@@H](C)N(C)C[C@@H]1C
-57.9	-73.8	-17.2	21.0	i	Cc1cccc(-c2ccc([C@H]3[C@@H](CO)N4CCCCN(CCC(F)(F)F)C[C@H]34)cc2)c1
-14.9	-6.2	-6.3	0.5	i	N#CC(OC(=O)c1ccccc1)c1cccc([N+](=O)[O-])c1 (configuration not stated)
13.7	5.3	5.1	-1.6	i	CCN(CC)c1ncnc2c1ncn2[C@H]1CN(Cc2ccco2)C[C@@H](CO)O1
-0.4	0.2	-1.4	-8.7	i	CC(=O)Nc1ccc(S(=O)(=O)Nc2cccc(S(=O)(=O)N(C)c3ccccc3)c2)cc1
0.9	5.3	-1.8	-2.5	i	O=C(Nc1nnc([C@H]2C[C@H](O)[C@@H](CO)O2)s1)Nc1ccccc1C(F)(F)F
-1.9	2.4	-1.6	0.3	i	CO[C@@H]1CN(C)C(=O)c2cc(NC(C)=O)ccc2OC[C@H](C)N(C(=O)c2ccccc2)C[C@H]1C
4.4	2.7	-1.3	-3.4	i	C[C@H]1CN([C@@H](C)CO)C(=O)Cc2cc(NC(=O)Cc3ccccc3)ccc2O[C@H]1CN(C)C(=O)Nc1ccccc1
26.7	21.4	2.7	-0.3	i	CC1Cc2[nH][nH]c(=O)c2C(C2CCCC2)O1 (configuration not stated)
1.5	-1.7	1.1	-0.9	i	CCCNC(=O)N1[C@@H]2CN(C(=O)c3ccc(F)cc3)c3ccccc3[C@@H]2[C@@H]1CO
1.6	2.4	-0.4	4.3	i	CN1C(=O)c2cc(NC(=O)c3cccc(C(F)(F)F)c3)ccc2OC[C@H]2O[C@H](CC(=O)NCCN3CCCC3)CC[C@@H]21
-2.6	-7.5	2.2	5.4	i	CC1=C(C(=O)N(C(C)C)C(C)C)CC(CC(=O)NC2CCCC2)C(=O)N1Cc1ccc(C(C)(C)C)cc1 (configuration not stated)
-2.0	1.5	0.2	3.1	i	COc1ccc(S(=O)(=O)Nc2cccc3c2O[C@H](CN(C)Cc2ccc(C(=O)Nc4ccccc4N)cc2)[C@@H](C)CN([C@H](C)CO)C3=O)cc1
4.0	5.9	2.8	-2.9	i	COc1ccc(S(=O)(=O)N2CC[C@H]3[C@@H](CO)N(C)c4ccc(-c5ccc(F)cc5)cc4[C@H]32)cc1
15.9&1.3	8.5&3.6	3.2&-2.4	0.4&1.0	i	COc1ccc(NC(=O)N(C)C[C@@H]2OCc3cnnn3CCCC(=O)N([C@@H](C)CO)C[C@@H]2C)cc1
2.4	-2.8	-1.2	-0.6	i	O=C(C1CCOCC1)N1CC2(C1)[C@H](c1ccccc1)[C@H](CO)N2CCC(F)(F)F
3.2	16.4	5.4	-1.1	i	CCCNC(=O)C[C@H]1CC[C@@H]2[C@H](COC[C@@H](O)CN2C(=O)c2cccnc2)O1
6.3	-8.8	0.4	-2.4	i	CCCCCC(=O)N1C[C@H](O)[C@@H](n2cc(COC(=O)c3ccccc3)nn2)C[C@@H]1c1ccc(Cl)cc1
-53.8	-73.6	-0.9	13.8	i	OC[C@H]1[C@H](c2ccc(C#Cc3ccccc3)cc2)[C@@H]2CN(CC3CCOCC3)CCCCN12
0.9	-2.3	-4.3	-0.3	i	CCCN1[C@@H]2Cn3c(ccc(C4=CCCCC4)c3=O)[C@H]1[C@@H](C(=O)NCC(F)(F)F)[C@@H]2CO
0.5	6.8	-0.6	-1.5	i	COc1ccc(NC(=O)N(C)C[C@@H]2Oc3ccc(NC(=O)C4CC4)cc3CC(=O)N([C@@H](C)CO)C[C@@H]2C)cc1

Grouped by structure, those above with a cyano group
Ecoli rRNA inh	Ecoli rRNA inh OD600	Ecoli rRNA inh RFP	MLL AF4-AF9 inh	FGF22 binding	compound
9.3	11.3	-0.5	-2.8	i	CC1(C(=O)NS(=O)(=O)c2ccc(C#N)cc2)CCN1C(=O)Cc1ccc(Cl)cc1Cl (configuration not stated)
-14.9	-6.2	-6.3	0.5	i	N#CC(OC(=O)c1ccccc1)c1cccc([N+](=O)[O-])c1 (configuration not stated)

Continued.
Ecoli rRNA inh	Ecoli rRNA inh OD600	Ecoli rRNA inh RFP	MLL AF4-AF9 inh	FGF22 binding	compound
0.6	7.3	3.6	-0.9	i	O=C(NCCc1ccccc1)[C@@H]1[C@@H](CO)[C@@H]2Cn3c(ccc(-c4ccccc4)c3=O)[C@H]1N2
-2.0	2.6	-0.2	-3.5	i	CCCNC(=O)N(C)C[C@H]1Oc2cc(C#Cc3ccccn3)ccc2S(=O)(=O)N([C@@H](C)CO)C[C@@H]1C
-4.2	-14.8	2.2	2.4	i	CCCNC(=O)C[C@@H]1CC[C@H]2[C@H](COc3ccc(NC(=O)Nc4cccc(C)c4)cc3C(=O)N2C)O1
20.8	10.1	7.1	0.3	i	CCCCCCCCN1C(=O)[C@H](CC(=O)NCCc2ccccc2OC)C[C@@]2(C(=O)OC)CCCCC=C12
-2.2	-2.6	-4.0	-0.2	i	C[C@@H]1CCCCO[C@H](CN(C)Cc2ccc(Cl)c(Cl)c2)[C@H](C)CN([C@@H](C)CO)C(=O)c2cc(NC(=O)Nc3ccc(C(F)(F)F)cc3)ccc2O1
2.6	-8.2	0.6	2.3	i	COC(=O)c1cc2c(c3c4cc(F)ccc4n(S(=O)(=O)c4cccc(C)c4)c13)C(=O)N(C)C2
1.9	6.6	-3.0	1.4	i	COc1ccc(-c2csc(C(NC(C)=O)c3ccccc3)n2)cc1 (configuration not stated)
5.8	4.7	5.8	-0.2	i	COC(=O)[C@@]1(Cc2ccc(F)cc2)[C@H]2c3cc(C(=O)N4CCCC4)n(CCc4c[nH]c5ccccc45)c3C[C@H]2CN1C(=O)c1ccccc1
-1.8	-3.5	-1.8	-1.5	i	C[C@H](CO)N1C[C@H](C)[C@H](CN(C)S(=O)(=O)c2ccc(F)cc2)OCCCC[C@H](C)Oc2ccc(NS(=O)(=O)c3cn(C)cn3)cc2C1=O

These rows are one share of the data; count on the stated rates, not on these rows.
